Screening data from PubChem BioAssay.
Six1-Eya2 inh – inhibitors of human Six1/Eya2 interaction; hit rate 0.56% among 360,000; activity change, % (test concentration not listed); AlphaScreen GST-Six1/His-Eya2 binding, biochemical; hits give low values; control for the full effect not named in the record; AID 651725; in the data active = activity change below about -65%; inconclusive = about -30% to -65%; inactive = above about -30%; further: on the % scale 0 is the no-effect control and ±100 the full control effect; compound concentration not given in the record
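Homogeneous AlphaScreen proximity assay pairing GST-Six1 with His-tagged Eya2 (added as 5X mix: 250 nM and 500 nM) in 50 mM Tris pH 8.0, 300 mM NaCl, 1 mM TCEP. Glutathione donor and nickel acceptor beads; 1 h, 37 °C, dark.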
gsp ag – activates gsp, the McCune-Albright syndrome mutation | gsp mutant cells, cAMP HTRF, 30 min; control for the full effect not named in the record | Potency, µM (series often up to 76.9 µM), inactives show at the top dose activation (cAMP increase), most hits filed as activators | hit rate 0.13% among 340,000 | AID 624287; active = well fitted activation curve with a large enough effect; inconclusive = small, poorly fitted or top-dose-only effect, or another doubt; inactive = no such curve, though single readings can be large or run the other way; cell line not stated here;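 further: phosphodiesterase inhibitor Ro 20-1724 added with compounds to block cAMP breakdown; potency means the concentration at half of the fitted maximal effect; nearly all actives have a fitted effect of over 60% in size; about a fifth of the inactives were tested at one dose only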
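Cells stably selected in G418 were plated at 2000/well, grown 16-24 hr, then given compounds in DMSO with the PDE inhibitor […] (300 uM solution added) for 30 min at 37C; cAMP was read by HTRF.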
gsp antag – gsp mutant antagonism. gsp-mutant cells, cAMP HTRF, 30 min; control for the full effect not named in the record. Potency, µM (highest dose often 76.9 µM), for the others: top-dose activity change, negative = inhibition, most hits filed as inhibitors. hit rate 0.4% among 340,000. AID 624288; active = falling curve of any shape with a large fitted effect; inconclusive = falling curve, mostly with a smaller effect; inactive = flat or rising curve; cell line not stated here;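 further: intracellular cAMP measured with PDE inhibitor Ro 20-1724 present during compound exposure; potency means the concentration at half of the fitted maximal effect; on the % scale 0 is the no-effect control and ±100 the full control effect; nearly all actives have a fitted effect of over 65% in size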
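G418-selected cells were plated in DMEM/10% FBS for 16-24 h at 37C, then treated with compounds plus the PDE inhibitor […] (300 uM solution added) for 30 min at 37C. Intracellular cAMP was measured by HTRF after 30 min lysis at room temperature.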
CtBP-E1A blk – blocks the CtBP interaction with E1A. AlphaScreen GST-E1A/His-CtBP binding, 1536-well; hits give low values; control for the full effect not named in the record. hit rate 0.49% among 340,000. AID 651724. activity change, % (test concentration not listed); in the data active means activity change below about -65%; inconclusive means about -30% to -65%; inactive means above about -30%; further: on the % scale 0 is the no-effect control and ±100 the full control effect; compound concentration not given in the record
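GST-E1A and His-tagged CtBP (125 nM each as 5X stock) were preincubated with pin-transferred compound for 2 h at 37 °C in the dark, then glutathione donor and nickel acceptor beads were added for 1 h before AlphaScreen reading.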
D2 potentiator – human D2 receptor positive allosteric modulation; hit rate 0.23% among 360,000; DiscoveRx D2 beta-arrestin cells, luminescence, 90 min; 100% = 57 uM dopamine signal; potentiation, % (test concentration not listed); AID 624464; active = potentiation of 50% or more; inconclusive = 30% to 50%; inactive = 30% or less;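 further: compound concentration not given in the record; tested on top of an EC20 dose of dopamine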
Target sequence (P14416 whole entry, looked up): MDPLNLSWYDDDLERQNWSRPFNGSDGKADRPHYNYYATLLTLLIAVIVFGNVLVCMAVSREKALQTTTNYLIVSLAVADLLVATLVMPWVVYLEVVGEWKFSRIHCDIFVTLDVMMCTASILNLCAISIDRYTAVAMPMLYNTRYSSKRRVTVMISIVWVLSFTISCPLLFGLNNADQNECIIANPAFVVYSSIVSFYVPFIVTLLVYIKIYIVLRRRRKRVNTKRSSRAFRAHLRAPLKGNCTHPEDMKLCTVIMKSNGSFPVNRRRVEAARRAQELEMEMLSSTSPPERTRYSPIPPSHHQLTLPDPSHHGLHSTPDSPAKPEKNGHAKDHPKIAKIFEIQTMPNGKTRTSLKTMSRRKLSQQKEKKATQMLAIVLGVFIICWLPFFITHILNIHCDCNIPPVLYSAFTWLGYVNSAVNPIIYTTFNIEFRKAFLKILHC
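D2 cells co-treated with compound plus 50 nM dopamine (EC20) for 90 min at 37 deg C to detect potentiation. Beta-arrestin recruitment was read as enzyme-fragment luminescence after 1 h at ambient temperature. Full response was set by 57 uM dopamine.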
D2 agonist – activates the human D2 dopamine receptor; P14416; DiscoveRx PathHunter D2 beta-arrestin, luminescence, 90 min; 100% = 57 uM dopamine signal; activation, % (test concentration not listed); hit rate 0.084% among 360,000; AID 624465; in the data active = activation above about 40%; inconclusive = about 15% to 40%; inactive = below about 15%; further: compound concentration not given in the record; the text of the record calls up to 30% inactive
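DiscoveRx PathHunter D2 beta-arrestin cells (2,100/well) attached overnight, then compound-stimulated 90 min at 37 C in HBSS/10 mM HEPES/0.1% Tween-20 buffer; beta-galactosidase complementation read by luminescence after 1 h at ambient temperature. Dopamine 57 uM final (EC100) as control.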
* hit, by the source's call; ? = inconclusive; · = no result given; [ ] = dose if it differs, or a comment.

1: CC(C)c1cc(C(=O)N/N=C/c2c[nH]c3ccccc23)n[nH]1
2: Brc1cccc(OCCSc2ncccn2)c1
3: COc1ccc(NC(=O)CSc2cc(C(=O)c3nccn3C)c3ccccc3n2)cc1
4: CN(Cc1cn(C)nc1-c1ccc(Oc2ccccc2)cc1)CC1COCCO1 (stereo not given)
5: O=c1[nH]c(CSc2ncn[nH]2)nc2ccccc12
6: Cc1ccc(-c2nc3ccccc3[nH]c2=O)cc1
7: CC1CC2OC2CC1COC(=O)C1CC2OC2CC1C (stereo not given)
8: COc1ccc(Nc2ccc(Nc3ccc(OC)cc3)nn2)cc1
9: COc1ccc(-c2csc(C(NC(C)=O)c3cccc(F)c3)n2)cc1 (stereo not given)
10: CCCC1=[N+](CC(=O)c2ccc(C)cc2)CCn2cccc21

screen / no.	1	2	3	4	5	6	7	8	9	10
Six1-Eya2 inh	-3	28	-2	-1	12	1	3	-1	7	11
gsp ag	1%	15%[15.4 µM]	0%[15.4 µM]	-19%	19%[15.4 µM]	6%	19%	1%	·	-34%[inhibitor]
gsp antag	-19%	-4%	?	3%	0%	3%	4%	-7%	·	14%
CtBP-E1A blk	1	·	?	-2	2	5	-10	·	-5	8
D2 potentiator	-20	-6	-5	-14	-8	-8	-3	-9	-3	-18
D2 agonist	-3.7	7.1	2.1	-1.4	-3.1	-5.0	0.9	-6.7	11	-4.7

11: C=C[C@]12CC[C@H](OC(C)=O)CC1=CCC1C2CC[C@@]2(C)C1CCC21OCCO1 (stereo not given in full)
12: Cc1ccc(C(C2C(=O)CC(C)(C)CC2=O)C2C(=O)CC(C)(C)CC2=O)s1
13: Oc1c(C(c2ccc(Cl)cc2)N2CCCC2)cc(Cl)c2cccnc12 (stereo not given)
14: O=[N+]([O-])c1cccc(-c2cc(C(F)(F)F)n3nc(-c4ccccc4)cc3n2)c1
15: Cc1cc(-c2ccccc2)nn1-c1nc2c(c(=O)[nH]c(=O)n2C)n1C
16: Cc1ccc(C(=O)N/C(=C/c2ccc(-c3ccc([N+](=O)[O-])cc3)o2)C(=O)NCCCN(C)C)cc1
17: O=C(CN1CCCCC1)N/N=C/c1cc2ccccc2nc1Cl
18: O=S(=O)(NCc1ccco1)c1cccc(S(=O)(=O)N2CCCCC2)c1
19: C(=C\c1ccccc1)/CN1CCN(C(CCc2ccccc2)c2nnnn2C2CCCCC2)CC1 (stereo not given)
20: O=C(NC(=S)NCC1CCCO1)c1ccccc1 (stereo not given)

screen / no.	11	12	13	14	15	16	17	18	19	20
Six1-Eya2 inh	-5	-1	?	0	0	-2	-1	-2	-20	19
gsp ag	3%	-29%	-54%[inhibitor]	-1%	-14%	-3%[15.4 µM]	16%[15.4 µM]	-22%	·	-37%[inhibitor]
gsp antag	-4%	-13%	1%	0%	-7%	-7%	-9%	5%	·	10%
CtBP-E1A blk	6	6	·	·	0	-7	·	1	-11	0
D2 potentiator	-2	-22	20	3	-8	-4	-6	8	-15	0
D2 agonist	1.6	-2.6	-2.7	-2.2	-2.5	1.8	0.9	3.1	-3.3	-2.6

21: CCOc1ccc(NC(=O)CN(C)C(=O)c2ccc(=O)[nH]c2)cc1OCC
22: CCCCC(c1nnnn1CCOC)N1CCN(C(=O)c2ccco2)CC1 (stereo not given)
23: Cc1c(O)c(CN2CCCCC2)cc2c3c(c(=O)oc12)CCC3
24: COc1ccc(C(=O)OCC(=O)c2cc(C)n(CC3CCCO3)c2C)cc1[N+](=O)[O-] (stereo not given)
25: COc1ccc(NC(=O)C(c2ccccc2)c2ccccc2)cn1
26: CCN1C[C@@H]2[C@@H]3C(=O)N(C)C(=O)[C@@H]3[C@](C)(C1=O)N2C(=O)c1ccc(C)cc1
27: CCOc1ccccc1CN1CCC(n2nccc2NC(=O)CCc2ccccc2)CC1
28: O=C(NCC12CC3CC(CC(C3)C1)C2)c1cc2n(n1)C(C(F)(F)F)CC(c1ccco1)N2 (stereo not given)
29: C=CCNC(=S)N/N=C(\C)c1cccc(OC)c1
30: Cc1ccc(C(=O)c2cc([N+](=O)[O-])ccc2N2CC(C)OC(C)C2)cc1 (stereo not given)

screen / no.	21	22	23	24	25	26	27	28	29	30
Six1-Eya2 inh	2	21	-3	-8	-1	1	21	0	-4	-17
gsp ag	-38%[inhibitor]	6%	?	-17%	-10%	1%	-14%	?	0%	-20%
gsp antag	7%	-8%	-27%	-22%	-6%	10%	10%	5%	8%	14%
CtBP-E1A blk	-1	0	-2	·	7	7	·	-1	23	·
D2 potentiator	-28	-15	-15	1	-4	-4	0	-6	-26	-6
D2 agonist	-5.3	-4.3	-0.4	-0.2	4.5	-1.1	-2.0	-5.2	-2.7	-7.4

31: COc1ccccc1CNC(=O)CC(NS(=O)(=O)c1ccc(C)cc1)c1ccco1 (stereo not given)
32: CC(C)(C)c1ccc(NC(=O)c2ccccc2)c([N+](=O)[O-])c1
33: CCOC(=O)C1(C)CCCN(C(=O)c2ccc(OC)c(OC)c2)C1 (stereo not given)
34: COc1cccc(CN2CCC2(C)C(=O)NCc2cccc(C(F)(F)F)c2)c1OC (stereo not given)
35: CCCN(CC(=O)Nc1ccc(Cl)cc1Cl)C(=O)c1ccc(=O)[nH]c1
36: COc1ccc(CC(=O)Nc2cc(Cl)ccc2O)cc1
37: COc1ccccc1NC(=O)c1ccc(COc2ccccc2OC)o1
38: O=C(c1cc(COc2ccc(F)c(F)c2)on1)N1CCSCC1
39: Cc1ccc([N+](=O)[O-])cc1NC(=O)CN(C(=O)c1ccc(Cl)cc1)C1CCCCC1
40: CC(C)CNC(=O)c1cccc(NC(=O)CSc2ccccc2)c1

screen / no.	31	32	33	34	35	36	37	38	39	40
Six1-Eya2 inh	-11	-25	1	1	-6	-14	-3	1	-21	1
gsp ag	-18%	-23%	·	·	33%	21%	-6%	0%	-29%	-7%[15.4 µM]
gsp antag	-11%	-5%	·	·	0%	-7%	1%	2%	-10%	8%
CtBP-E1A blk	-3	0	7	2	-20	3	3	0	-16	6
D2 potentiator	-4	-6	-7	11	-6	-4	1	-10	-26	2
D2 agonist	1.6	-3.1	-4.3	9.2	0.1	1.1	-2.0	-2.4	-6.1	-4.5

41: CCCC[C@H]1C2=C3[C@@H](CC(C(=O)OC)=C[C@@H](C(=O)OC)[C@H]3C(C)(C)C2=O)n2c(=O)n(-c3ccccc3)c(=O)n21
42: COCCOC(=O)c1c(N)n(CCCN2CCOCC2)c2nc3ccccc3nc12
43: CCC(CC)C(=O)Nc1c2cnn(-c3ccccc3)c2nc(=O)n1-c1ccccc1
44: CCn1nc(C)c(CNC(=O)c2ccc(OC3CCN(Cc4ccccn4)CC3)cc2)c1C
45: Cc1ccc(CSc2nnc(-c3ccc(S(=O)(=O)N4CCCC4)cc3)o2)cc1
46: COc1ccccc1N(CN1C(=O)c2ccccc2C1=O)C(=O)c1cccnc1
47: Cc1ccc(C(=O)N[C@H](C(=O)Nc2ccc(F)cc2)C(C)C)cc1
48: N#Cc1c(N)sc(=S)c2c1CCCCC2
49: c1ccc(CCc2ccccc2-c2nc(-c3cccnc3)no2)cc1
50: CCOC(=O)c1c(N)n[nH]c1-c1ccc(OC)cc1

screen / no.	41	42	43	44	45	46	47	48	49	50
Six1-Eya2 inh	2	-3	8	-10	3	7	6	-20	0	7
gsp ag	·	-5%[15.4 µM]	-1%	-44%	10%	-30%	21%	?	11%	-2%
gsp antag	-11%	-7%	8%	-6%	16%	8%	4%	20%	4%	0%
CtBP-E1A blk	2	3	-6	-5	0	2	6	-6	48	12
D2 potentiator	-5	-3	-7	13	-2	-7	-9	0	-21	-10
D2 agonist	-0.9	-0.3	-3.6	1.3	2.0	-1.8	0.6	-4.9	-4.8	1.8

51: CN(Cc1ccon1)C(=O)CC1C(=O)NCCN1Cc1ccccc1C(F)(F)F (stereo not given)
52: O=C1/C(=C/c2ccc(Cl)cc2)SC(=S)N1CCC(=O)N1CCCCC1CCO (stereo not given)
53: COc1ccc(Br)cc1CN1C(=O)NC2(CCCCCC2)C1=O
54: C/C(=N\NC(=O)COc1cccc2ccccc12)c1cccs1
55: CCc1nnc(NC(=O)c2ccc3ncsc3c2)s1
56: Cc1nnc(N(C)C(=O)c2ccncc2)s1
57: C=CCONC(=O)c1cc(OCC(F)(F)F)ccc1OCC(F)(F)F
58: Cc1cc(C)nc(N2CCC(C(=O)NC3CC3)CC2)n1
59: COc1ccc(CC(=O)NCc2ccccn2)cc1OC
60: CCOc1cccc2cc(-c3csc(NC(=O)CCC(=O)NCCN4CCCCC4C)n3)c(=O)oc12 (stereo not given)

screen / no.	51	52	53	54	55	56	57	58	59	60
Six1-Eya2 inh	2	-9	4	3	8	0	8	2	-3	-4
gsp ag	-2%	1%	-17%	8%[15.4 µM]	9%	-41%[inhibitor]	0%	-17%	-45%[inhibitor]	-2%[15.4 µM]
gsp antag	10%	-17%	-7%	-8%	6%	6%	1%	10%	6%	-17%
CtBP-E1A blk	2	-11	-14	-18	·	·	-1	8	-5	-23
D2 potentiator	0	-12	-2	-13	-12	-2	-2	0	-22	-4
D2 agonist	-5.2	3.5	-0.9	2.2	-14	-2.3	-0.3	1.2	-3.5	3.9

Compound profiles, as listed above. Order of values: Six1-Eya2 inh | gsp ag | gsp antag | CtBP-E1A blk | D2 potentiator | D2 agonist
`C/C(=N\NC(=O)COc1cccc2ccccc12)c1cccs1` across the screens: 3 | 8%[15.4 µM] | -8% | -18 | -13 | 2.2
`Cc1cc(C)nc(N2CCC(C(=O)NC3CC3)CC2)n1` across the screens: 2 | -17% | 10% | 8 | 0 | 1.2
`CCOc1cccc2cc(-c3csc(NC(=O)CCC(=O)NCCN4CCCCC4C)n3)c(=O)oc12` (stereo not given) across the screens: -4 | -2%[15.4 µM] | -17% | -23 | -4 | 3.9

Additional records.
61: N#Cc1nc(COc2ccccc2Cl)oc1N1CCCCCC1
62: COc1ccc(S(=O)(=O)Cc2ccc(C(=O)NC(C)C)o2)cc1
63: COc1ccc(N(CC(=O)NCC2CCCO2)S(=O)(=O)c2c(C)noc2C)cc1 (stereo not given)
64: c1ccn2cc(CSc3nnc4ccccn34)nc2c1
65: COc1ccc(N2C(=O)c3ccccc3C2O)cc1 (stereo not given)

screen / no.	61	62	63	64	65
Six1-Eya2 inh	-14	5	5	5	-10
gsp ag	9%	-4%	2%	-5%	-36%[inhibitor]
gsp antag	9%	4%	4%	5%	4%
CtBP-E1A blk	-9	-3	6	9	-16
D2 potentiator	-4	0	-10	18	-5
D2 agonist	1.3	-3.0	-1.8	2.4	0.8
